Source: PubChem BioAssay (several laboratories)
MT1-MMP act inh = inhibitors of human MT1-MMP activation. AID 651647. HT1080 RFP-PRO-GFP cells, GFP/RFP ratio fluorescence, overnight; percent of plate control window, DMSO zero. P50281. 360,000 compounds, 0.061% hits. GFP/RFP ratio change, % at 20 µM;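 active means GFP/RFP ratio change of at least 30% with cell ATP level not reduced by more than half and red fluorescence within 50% of control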; further: strong numbers were not always called active
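Assay system: RFP-PRO-GFP reporter HT1080 cells; read-out basis: GFP/RFP fluorescence ratio; benchmarks: DMSO wells and RFP-L50D-GFP cells; doses: 20 µM single dose, 1% DMSO; schedule: overnight cell settling, then overnight compound exposure, 37 °C, 5% CO2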
Env fusion inh = blocks HIV Env-driven cell-cell fusion; AID 651610; HeLa-JRFL Env/CEM21 cell fusion, luciferase; inhibition, % at 12.3 µM; 360,000 compounds, 1.1% hits;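 active means mean replicate inhibition score of at least 50 and every replicate individually at or above 50; inconclusive means only one of the two criteria met; inactive means mean below 50 and not all replicates reaching 50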;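 further: 0% = plate neutral controls and 100% = maraviroc near 300 nM; one replicate is shown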
Yeast UUG start = alters start codon recognition fidelity in yeast. S. cerevisiae UUG-firefly luciferase reporter, luminescence/redox ratio. activity score, % at 18.7 µM. 350,000 compounds, 0.13% hits. AID 602363;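 active means replicate mean at a twofold rise or more, about +100% in these data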;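 further: firefly luciferase made from a UUG start codon reports start codon fidelity; reporter light over untreated wells divided by growth signal over untreated wells; some hits fall short of that in this replicate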
PABP polyA inh = PABP-poly(A) binding inhibition | AID 2014 | P11940 | PABP-poly(A) RNA binding, fluorescence polarization | inhibition, % at 35 µM | 290,000 compounds, 1% hits;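 active means 50% or more with normal probe brightness, or confirmed in later tests; inconclusive means above 50% with abnormal brightness, or retests that disagree; inactive means below 50% or failed in later tests; about a fifth of its hits are not listed in these tables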;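 further: calls also rest on retests at 20 µM and on dose response follow-up; controls were probe without protein and protein plus probe with vehicle; some compounds called inactive have numbers as strong as hits; many hits fall short of the cut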
Target sequence (P11940 whole entry, looked up): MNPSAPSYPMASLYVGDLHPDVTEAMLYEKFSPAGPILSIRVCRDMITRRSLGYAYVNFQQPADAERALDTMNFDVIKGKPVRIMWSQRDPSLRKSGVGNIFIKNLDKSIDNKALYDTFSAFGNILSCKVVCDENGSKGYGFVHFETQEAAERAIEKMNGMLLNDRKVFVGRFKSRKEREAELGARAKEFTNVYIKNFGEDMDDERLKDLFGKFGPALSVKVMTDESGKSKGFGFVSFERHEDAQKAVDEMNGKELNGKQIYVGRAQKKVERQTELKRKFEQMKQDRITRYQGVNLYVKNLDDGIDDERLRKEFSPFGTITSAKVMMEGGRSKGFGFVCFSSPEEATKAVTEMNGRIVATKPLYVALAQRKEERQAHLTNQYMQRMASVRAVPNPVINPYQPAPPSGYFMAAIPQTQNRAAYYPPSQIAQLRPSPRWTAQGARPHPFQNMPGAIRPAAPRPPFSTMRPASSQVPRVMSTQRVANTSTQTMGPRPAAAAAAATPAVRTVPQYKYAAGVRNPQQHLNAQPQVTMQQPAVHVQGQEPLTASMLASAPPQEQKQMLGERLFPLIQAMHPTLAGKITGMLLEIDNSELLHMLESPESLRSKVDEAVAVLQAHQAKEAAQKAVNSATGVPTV
eIF4H inh = inhibitors of RNA binding by human eIF4H; Q15056; 290,000 compounds, 0.94% hits; AID 2012; inhibition, % at 35 µM; eIF4H fluorescence polarization binding assay;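 active means 50% or more with normal probe brightness, or confirmed in later tests; inconclusive means above 50% with abnormal brightness, or retests that disagree; inactive means below 50% or failed in later tests; about a fifth of its hits are not listed in these tables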;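 further: calls also rest on retests at 20 µM and on dose response follow-up; 0% = protein and probe with vehicle and 100% = probe without protein; strong numbers were not always called active; many hits fall short of the cut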
CSC inhib = blocks cancer stem cells; cancer stem cell-like cells viability, luminescence; inhibition, % at 7.5 µM; 300,000 compounds, 1.1% hits; AID 2717;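 active means mean at 75% or more and at least half the replicates too; inconclusive means mean and replicates disagree; tested in HMLE shEcad cells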;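 further: 0% = median of negative and 100% = median of positive control wells; the first replicate is given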
Rce1 inh = yeast Ras-converting enzyme inhibition | calls only | yeast membranes, quenched prenylated peptide cleavage fluorescence | AID 2563 | 290,000 compounds, 0.27% hits | Q03530;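 active means fall in fluorescence gain of 50% or more versus controls, with final raw signal at or below 3038400; inconclusive means same 50% fall but final raw signal above 3038400; inactive means fall in fluorescence gain under 50%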;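 further: plate controls were neutral control wells for no effect and wells lacking membranes for full effect; tested at 10 µM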
eIF4H inh retest = further read-out of eIF4H inh, marked with its call; inhibition, %; compound at 20 µM; confirmation average;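 mean of two retest wells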
PABP polyA inh retest = also measured in PABP polyA inh; calls as there; inhibition, %; compound at 20 µM; confirmation repeats;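 mean of two retest wells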
MT1-MMP act inh RFP = recorded beside MT1-MMP act inh, whose call it bears; RFP signal change, %; measured here: RFP expression control read;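 0 = vehicle wells; hits needed this value within 50% of zero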
The depositor's hits bear a star; i = inactive; ? = inconclusive; . = not tested or not shown; + = active, no number. This is a subset; rates above refer to the full screens.

SMILES	MT1-MMP act inh	MT1-MMP act inh RFP	Env fusion inh	Yeast UUG start	PABP polyA inh	eIF4H inh	CSC inhib	Rce1 inh	others
Cc1ccc(C(=O)N/C(=C\c2sccc2C)C(=O)NCc2ccncc2)cc1	-2	0	-17	.	-6	1	11	i
CC(=O)c1cccc(NC(=O)CN(C)Cc2ccc(OC(F)F)cc2)c1	3	-5	4	-25	4	13	13	i
Cc1ccccc1C(=O)Nc1ccnn1C1CCN(Cc2ccccn2)CC1	-4	2	-24	-19	11	9	-8	i
COc1ccc(N2CCN(Cc3nc(N)nc(Nc4ccc(C)c(Cl)c4)n3)CC2)cc1	-12	-19	-67	-18	-5	-4	3	i
O=C(CN1CCCCC1)NNC(=O)c1cccc(Br)c1	4	5	-2	2	-7	1	-13	i
Cc1ccccc1NC(=O)c1c(C)[nH]c(=S)c(C#N)c1-c1ccco1	-5	5	22	-14	0	?	-5	i
CC(=O)Nc1ccc(S(=O)(=O)N2CCN=C2SCc2cccnc2)cc1	-5	-3	0	.	13	-1	-6	i
COc1ccc(S(=O)(=O)N2CCN(C)CC2)c2ccccc12	-1	2	15	-24	-14	-4	6	i
COc1ccc2[nH]c(C)c(CCNC(=S)Nc3ccc(F)cc3)c2c1	-3	-1	-1	.	-9	1	-5	i
Cc1ccc(-n2c(SCC(=O)Nc3ccc(Cl)cc3)nc(O)cc2=O)cc1	3	1	-6	-16	10	-6	-10	i
O=c1c2ccccc2nc2c3ccccc3c(NCc3cccnc3)nn12	4	10	-12	.	2	10	11	i
Cc1nc2ccccc2cc1C(=O)N/N=C/c1ccco1	-2	2	-30	-10	-18	87*	-3	i	eIF4H inh retest=56*;PABP polyA inh retest=29
O=C(Nc1ccc(Cl)cc1)c1ccc(-n2cncn2)c([N+](=O)[O-])c1	11	-4	-41	-14	-2	5	-8	i
O=C1C[C@@H]2CCN3C(=O)CCC[C@@H]([C@H]23)[C@H]1Cc1ccccc1	5	0	-46	-7	.	.	.	.
CC(=O)O/N=C/c1c(NCc2ccccc2)nc2c(C)cccn2c1=O	7	7	40	-17	1	-2	-5	i
COC(=O)c1ccc2c(c1C(=O)OC)CN(S(=O)(=O)C(C)(C)C)[C@@H]2CCO	3	7	20	12	.	.	.	.
CN1CCN(CCOCCOc2ccc(Br)cc2Cl)CC1	-2	1	3	-26	7	6	50	.
O=C(NCc1cccc(F)c1)C1CCC(=O)N(CCCN2CCOCC2)C1 (stereo not drawn)	0	0	4	-7	-10	-2	-2	i
Cc1nc(SCCC(=O)O)c2cc(-c3ccccc3)sc2n1	1	4	42	-15	14	1	23	i
CC(Nn1cnnc1)c1cc(Cl)ccc1O (stereo not drawn)	4	4	8	.	-4	1	-19	i
O=C(N/N=C\c1cccc(Cl)c1)c1ccc(Cn2cccn2)o1	-1	0	.	-12	2	-6	.	i
CCOC(=O)C1=CN(CC)S(=O)(=O)NC1c1cccc(OC)c1 (stereo not drawn)	3	0	-111	-6	.	.	.	.
CCCC(=O)Nc1ccc(C(=O)NCc2ccccn2)cc1	-5	-3	4	.	8	-1	-8	i
COc1cc(/C=N/N(C)C)ccc1OC(=O)c1cccs1	-4	1	19	-7	-6	0	.	i
Cc1nc(N/N=C/c2ccc(Br)cc2)cc(N2CCOCC2)n1	2	-5	19	-9	-6	-2	12	i
Fc1ccc(-c2noc(C3CCN(Cc4cccnc4)CC3)n2)cc1	-6	-17	28	-14	-13	-10	-2	i
O=C(CS(=O)c1cccc(C(F)(F)F)c1)Nc1ccccc1Cl (stereo not drawn)	-2	10	-22	-13	-2	2	-12	i
CN(C)S(=O)(=O)c1ccc(NC(=S)NC(=O)c2cccs2)cc1	-2	-3	4	.	1	-2	8	i
Cc1ccccc1NC(=O)N1CCCC1C(=O)NCc1ccccc1 (stereo not drawn)	-3	0	-3	-15	0	-9	-15	i
N/C(=N\c1nc(CSc2nc3ccccc3s2)cc(=O)[nH]1)Nc1ccc(F)cc1	5	-2	-162	.	-3	-8	6	i
CCOc1ccc(N(C)S(=O)(=O)c2ccc(C)c(C(=O)NCCc3ccc(OC)cc3)c2)cc1	11	-6	7	-7	.	.	.	.
CN(CCNC(=O)Cn1c(=O)sc2ccccc21)Cc1ccccc1	0	4	-2	-16	2	-2	-4	i
OC[C@@H]1[C@@H](c2ccc(F)cc2)C(c2cccc(Cl)c2)=NN1c1ccccc1	5	-6	-22	-4	.	.	.	.
Cc1ccccc1NC(=O)CSc1cn[nH]n1	0	1	7	.	6	3	-9	i
CCOc1ccc(N(Cc2cc3ccc(C)cc3[nH]c2=O)S(C)(=O)=O)cc1	4	-2	.	-21	-2	-8	2	i
O=C(Nc1cccc(-c2nc3cccnc3s2)c1)c1cccnc1Cl	-7	-8	-5	2	4	-12	-4	i
CCN1CCN(CCCNC(=O)C2CCCN(c3nnc(-n4cccc4)s3)C2)CC1 (stereo not drawn)	5	-1	.	-21	-7	-8	-13	i
CCc1ccc(NC(=O)c2ccc3c(c2)C(=O)N(CCOC)C3Nc2ccc(CC)cc2)cc1 (stereo not drawn)	4	4	-39	-9	2	7	12	i
Nc1ncnc2nc(-c3ccccc3)[nH]c12	1	4	-37	-8	.	.	.	.
COCCNc1cc(NCCOC)c([N+](=O)[O-])cc1[N+](=O)[O-]	4	3	8	-13	0	11	6	i
CC1CN(c2ccc([N+](=O)[O-])cc2F)CCN1C(=O)c1ccco1 (stereo not drawn)	3	-7	-2	-5	-2	-14	-5	i
CC1(C)OC(=O)C(=CNc2ncccn2)C(=O)O1	1	3	.	12	6	0	-7	i
COn1c(SCc2ccccc2)nc2ccccc2c1=O	2	-7	-6	-5	13	2	3	i
Cc1cc(NC(=O)CSc2nc(C(C)(C)C)nc3ccccc23)no1	-1	-3	-38	.	1	-10	8	.
Cc1cccc(N2C(=O)CC(n3ccnc3)C2=O)c1C (stereo not drawn)	1	1	12	-4	-4	-3	2	i
CC(=O)N1CCc2cc(C(=O)CN3CCN(c4ccccc4F)CC3)ccc21	-9	1	6	6	8	-4	8	i
COc1cc(NC(=S)N2CCN(S(C)(=O)=O)CC2)cc(OC)c1	0	5	13	-22	-1	-13	-4	i
COc1cc(/C=N\NC(=O)c2ccc(C)nc2)ccc1OC(=O)c1ccco1	-2	0	0	.	48	4	-2	.
Cc1ccc(NC(=O)C2CCN(S(=O)(=O)c3ccccc3)CC2)cc1	6	-3	21	31	1	-7	-12	i
CCOc1cc(C2NC(=O)NC(C)=C2C(=O)OC(C)CC)cc(Br)c1O (stereo not drawn)	5	4	-49	1	6	-3	-2	i
COc1ccc(CCNC(=O)CNC(=O)c2ccco2)cc1	3	6	-3	-8	-4	-17	-2	i
COc1ccccc1NC(=O)CCCN1C(=O)C2CC=CCC2C1=O (stereo not drawn)	-2	3	2	-6	9	4	-1	i
Cc1cc(NC(=O)CSc2nc(-c3ccco3)cc(C(F)(F)F)n2)n(-c2ccccc2)n1	-10	-16	.	.	-8	-10	52	i
COCOCCn1cc(CN2CCS(=O)(=O)N(Cc3ccc(-c4ccc(F)nc4)cc3)C(CC(C)C)C2=O)nn1 (stereo not drawn)	1	-1	19	-5	.	.	.	.
O=C(c1ccco1)N1CCN(c2c([N+](=O)[O-])nn(-c3ccc(Cl)cc3)[n+]2[O-])CC1	2	-2	-6	.	3	0	-9	i
CCOC(=O)/C=C1\Nc2ccccc2SC1=O	-4	-3	113*	-16	-5	4	-4	i
COc1cc(CCCN[C@H](CN)Cc2ccccc2)cc(OC)c1OC	-1	6	-10	0	.	.	-2	.
COCCN=C1NN=C(c2cc(C)n(CC3CCCO3)c2C)CS1 (stereo not drawn)	1	4	-3	.	23	18	-16	i
COc1ccc(CC(=O)NNC(=O)COc2ccc(Cl)cc2C)cc1S(=O)(=O)N1CCOCC1	2	2	4	-11	.	.	.	.
S=C(NCc1ccc(Cl)cc1)NN1CCOCC1	0	2	-5	.	-6	-4	10	i

(continued)
SMILES	MT1-MMP act inh	MT1-MMP act inh RFP	Env fusion inh	Yeast UUG start	PABP polyA inh	eIF4H inh	CSC inhib	Rce1 inh	others
Cc1c(C2Nc3ccccc3NC3=C2C(=O)CC(C)(C)C3)cnn1C (stereo not drawn)	-26	0	-11	-21	-4	0	-3	i
CCOC(=O)c1sc(NC(=S)NC(=O)c2cccc(Cl)c2)c(C(=O)OCC)c1C	-9	-3	.	-16	14	0	30	i
C=CCN1CCN(C(c2cc(OC)ccc2OC)c2nnnn2CC2CCCO2)CC1 (stereo not drawn)	3	3	.	-11	25	-3	-15	i
O=C(N/N=C/C1CC=CCC1)c1ccc(O)cc1O (stereo not drawn)	-3	4	10	.	-8	7	-12	+
O=c1[nH]c(=O)n(CCc2ccc(F)cc2)c(O)c1C=NCc1ccc2c(c1)OCO2	8	0	0	-10	-10	8	.	i
O=C1N(c2ccccc2C(F)(F)F)O[C@@]1(c1ccccc1)C1CCCCC1	21	-1	5	-9	.	.	74	.
Cc1c(C=O)c(=O)n(-c2ccccc2)n1C	2	5	2	-11	8	6	1	i
Cc1ccc2[nH]c3c(NCCCN4CCCC4=O)ncnc3c2c1	13	8	.	.	-5	0	-8	i
O=C(CCn1c(=S)[nH]c2ccccc2c1=O)N1CCOCC1	1	0	-8	-15	9	1	6	i
O=C1CN2C(=N1)N(Cc1ccccc1)c1ccccc12	5	4	-278	1	0	-4	-11	i
Cc1cc(C(=O)Nc2nc(-c3ccccn3)cs2)ccc1[N+](=O)[O-]	2	-2	?	.	4	23	-4	i
O=C(C[n+]1cnn(CC(=O)c2ccc(Cl)cc2Cl)c1)c1ccc([N+](=O)[O-])cc1	-1	-3	-21	.	21	-5	21	i
Cc1ccc(C(=O)N/C(=C\c2ccco2)C(=O)NCCN2CCOCC2)cc1	-1	-7	-19	-9	3	9	-4	i
O=C(Nc1cccc(S(=O)(=O)N2CCOCC2)c1)C(c1ccccc1)N1CCCCC1 (stereo not drawn)	-5	1	22	.	5	2	-11	i
Cc1cccc2sc(=S)[nH]c12	1	3	-10	-23	.	.	.	.
O=C(NN1CCCCC1)c1cccc(COc2ccc(Cl)cc2)c1	1	-5	.	-18	-6	2	2	i
COc1cccc(CNc2ncc(-c3ccccc3)n2C)c1	0	2	-12	-30	-2	-5	6	i
CC(C)(C)S(=O)(=O)N1Cc2cc(=O)n(Cc3ccccc3)c(CCO)c2[C@@H]1CCO	2	7	-72	-7	.	.	.	.
NC(=S)NN=C(c1ccc(F)cc1)C1CC1	-4	-1	0	-28	.	.	.	.
c1ccc(C2Nc3ccccc3Oc3ccccc32)cc1 (stereo not drawn)	-7	-6	-40	-11	20	-5	15	i
CCc1cc2c(=O)[nH]c(N3CCCC3)nc2s1	-4	3	-4	.	-6	7	3	i
Nc1nc(Nc2ccccc2)nc(NCc2ccco2)c1[N+](=O)[O-]	-1	-9	-25	-9	8	3	28	i
CCCCNC(=O)Cn1cnc2c(cnn2-c2ccc(C)c(C)c2)c1=O	3	3	-5	12	-6	-10	-10	i
COc1cc2ccccc2c2c1CCCC2=O	-5	-3	.	.	3	2	13	i
